# B2AR ag: agonists of human beta-2 adrenergic receptor inducing internalization; response, % (test concentration not listed); P07550; hit rate 0.43% among 340,000; Am2.2-beta2AR cells, FAP receptor internalization, flow cytometry; reference of the scale not given here; AID 504454;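 active = response above a set limit, near 3 SD of response in nonfluorescent compounds, cut at about 42% in these data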;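 also: stock transfer was 100 nL into about 11 µL; a reference agonist was the positive control; negative values mostly stem from fluorescent compounds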
# Target sequence (P07550 whole entry, looked up): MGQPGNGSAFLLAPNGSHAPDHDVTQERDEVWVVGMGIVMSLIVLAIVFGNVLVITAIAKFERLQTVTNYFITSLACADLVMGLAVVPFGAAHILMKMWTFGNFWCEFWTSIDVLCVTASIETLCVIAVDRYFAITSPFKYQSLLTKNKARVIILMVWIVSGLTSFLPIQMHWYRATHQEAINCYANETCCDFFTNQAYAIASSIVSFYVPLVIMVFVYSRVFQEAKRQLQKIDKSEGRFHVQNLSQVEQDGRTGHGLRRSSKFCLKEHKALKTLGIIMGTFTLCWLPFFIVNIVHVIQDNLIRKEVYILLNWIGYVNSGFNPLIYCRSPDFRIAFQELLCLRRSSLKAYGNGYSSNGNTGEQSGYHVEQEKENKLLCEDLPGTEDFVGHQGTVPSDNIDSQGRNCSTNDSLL
# Bfl-1 A1 inh: inhibitors of the anti-apoptotic protein A1, read as caspase activation; hit rate 0.066% among 330,000; MEF A1-2A-BIM cells, Caspase-Glo 3/7 luminescence, 3 h; percent of clofoctol response, vehicle zero; caspase activation, % (no concentration beside the values);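 active = over half of replicate activation scores above 10%, or exactly half above 10 with the replicate mean above 10; inconclusive = replicate mean below 10 yet half the replicates above 10; inactive = over half of replicates below 10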;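 also: wells of about 30 µL received 50 nL stock; many hits fall short of the cut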
# HNF4A DNA FP: change in binding of human HNF4 alpha to DNA | P41235 | HNF4a-FITC DNA binding, fluorescence polarization, 1 h | activity change, % at 10 µM | hit rate 0.3% among 360,000 | AID 1224865; in the data active = activity change above about 30%, passing the limit was not always enough;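 also: controls were the assay level and a saturating level of protein; the project sought stronger binding though the title names inhibitors; some compounds called inactive have numbers as strong as hits; positive values seem to mean higher polarization but the record does not say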
# E coli growth: blocks Escherichia coli growth. OD600, 23 h; hits give low values. OD600 absorbance (no concentration beside the values). hit rate 0.21% among 330,000. AID 1053175;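 active = OD600 absorbance below the run mean of sample wells minus 3.6 SD, in any replicate, cut at about 0.56 in these data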;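 also: stock transfer was 300 nL into about 60 µL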
# Vif A3G: HIV-1 Vif–A3G interaction blockers – biochemical, TR-FRET, GST-Vif 1-94, biotin-A3G peptide, dose response retest, primary screen (AID 1117319); TR-FRET GST-Vif / biotin-A3G peptide binding; higher % means a stronger effect; test concentration not given here; strong numbers were not always called active; one-dose inhibition, %; IC50 in µM for titrated hits; hit rate 0.57% among 260,000;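 active = above the screen mean plus three standard deviations and confirmed in dose response; inconclusive = results disagree or hit not tested in dose response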;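 also: Vif residues 1-94 fused to GST binding biotinylated APOBEC3G peptide 110-148; 0% = full assay without inhibitor and 100% = GST in place of GST-Vif; retest series ran down from 100 µM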
# UCH37 inh: inhibitors of human deubiquitinating enzyme UCH37; purified proteasome/UCH37, Ub-AMC cleavage fluorescence; Q9Y5K5; inhibition, % (concentration not given with the values); hit rate 0.33% among 330,000;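 active = mean of two replicates above 20%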;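 also: 0% = compound-free wells with enzyme and 100% = wells lacking proteasome; stock transfer was 100 nL into about 20 µL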
# Target sequence (Q9Y5K5 whole entry, looked up): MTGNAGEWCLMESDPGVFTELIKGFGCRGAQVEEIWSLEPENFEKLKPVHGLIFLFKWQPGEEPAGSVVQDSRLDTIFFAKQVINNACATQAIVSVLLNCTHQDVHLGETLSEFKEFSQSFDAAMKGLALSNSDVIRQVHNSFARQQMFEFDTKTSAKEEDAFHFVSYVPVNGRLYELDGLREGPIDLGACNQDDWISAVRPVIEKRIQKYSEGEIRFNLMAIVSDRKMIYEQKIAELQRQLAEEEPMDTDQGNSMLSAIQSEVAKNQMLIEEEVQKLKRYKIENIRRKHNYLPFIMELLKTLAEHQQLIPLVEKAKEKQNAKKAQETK
#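 Assay system: Proteasome-bound UCH37. Buffer or medium: pH 7.4 Tris-HCl (50 mM) with ovalbumin, ATP-MgCl2, DTT. Incubation: 30 min preincubation with enzyme, 25 min cleavage at room temperature. Measured by: fluorescence, ex 355 nm, em 460 nm. Read-out basis: percent inhibition. Control set: wells without proteasome as full block, compound-free enzyme plus substrate as uninhibited.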
# LANA-H2B inh: blocks KSHV LANA binding to histone H2A/H2B | Q9QR71 | hit rate 0.6% among 320,000 | cell-free LANA-H2A/H2B peptide, fluorescence polarization | inhibition, % (no concentration beside the values) | AID 2629; in the data active = inhibition mostly above about 10%, no sharp cut-off; inactive = mostly below about 6.7%;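 also: stock transfer was 7.5 nL into about 10 µL; 0% = median of vehicle wells and 100% = median of positive control wells; one replicate is shown; the record names a cut of 25% in any replicate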
# * marks the source's active call; other numbers are inactive results; ? = inconclusive; . = not tested or not shown; & = joins results of further samples.
SMILES,B2AR ag,Bfl-1 A1 inh,HNF4A DNA FP,E coli growth,Vif A3G,UCH37 inh,LANA-H2B inh
COc1ccc(CCNC(=O)CCCc2ccccc2)cc1OC,0,?,2.4,0.71,1%,-0.5,-9.0
Cc1nnc(NC(=O)c2ccc3c(c2)OCO3)s1,-3,-6.1,-0.5,0.67,.,3.3,-1.2
COc1ccc(-n2c(C)c(C)c3c(NCCCO)ncnc32)cc1,-2,0.2,0.2,0.61,4%,3.0,4.2
CCOC(=O)C1CCN(C(=O)c2ccccc2CCc2ccccc2)CC1,6,0.0,-0.8,0.68,2%,1.8,-1.9
Cc1c(C(=O)NN)nn(-c2ccc(F)cc2)c(=O)c1C#N,11,0.7,0.1,0.64,.,6.3,-4.9
Cc1nc(CN(C)C(=O)CC2C(=O)NCCN2Cc2ccc(-c3ccccc3)cc2)cs1 (stereo unspecified),1,0.2,3.9,0.67,.,-6.5,-3.5
O=C(NC1CCSc2ccccc21)c1cc(S(=O)(=O)N2CCOCC2)ccc1Cl (stereo unspecified),2,0.6,-1.4,0.68,-2%,0.5,2.5
Cc1nn(Cc2noc(C(=O)NCCCn3ccnc3)n2)c(C)c1Br,-5,0.2,0.3,.,-2%,.,-2.3
Cc1ccc(C(=O)NC(c2ccccc2)C(Cl)Cl)cc1 (stereo unspecified),1,1.5,2.4,0.66,-3%,3.0,9.7
O=C(CN1c2cccc3cccc(c23)S1(=O)=O)Nc1ccc(S(=O)(=O)N2CCOCC2)cc1,11,1.0,-0.4,.,8%,-3.3,0.2
CCOc1cc(N2CCOCC2)c(OCC)cc1NC(=O)CSc1ccccc1C(=O)O,7,.,3.1,0.67,.,0.6,.
CSc1ccc(/C=N\NC(=O)CNc2ccc(C)cc2)cc1,4,0.1,5.3,.,1%,.,-5.0
C=CCn1c(CC(=O)Nc2ccc(C)cc2C)nnc1SCC(=O)N1CCOCC1,-2,0.5,3.1,0.7,.,3.6,-6.3
COc1cccc(NC(=O)C(C)OC(=O)CCCNC(=O)c2ccc(Cl)cc2)c1 (stereo unspecified),-3,0.1,-0.6,0.68,-5%,1.9,-5.2
CC(C)(C)c1csc(NC2=NS(=O)(=O)c3ccccc32)n1,-2,-3.1,0.2,0.67,?,4.4,1.3
COc1cc(C(=O)NNC(=O)C2CCC2)cc(OC)c1OC,0,1.3,-5.3,0.67,.,-0.1,3.3
O=c1[nH]c(SCc2n[nH]c(=S)n2-c2ccccc2)nc2sc3c(c12)CCC3,12,1.1,1.0,0.62,2%,3.7,-5.8
O=C(CSc1ccccc1)N1CCN(c2ccc(F)cc2)CC1,-1,-0.3,1.2,0.61,.,2.1,1.4
Cc1ccc(CSc2nnc(-c3ccc(NS(=O)(=O)c4ccccc4)cc3)o2)cc1,0,-0.4,3.2,0.71,.,3.2,-0.7
Cc1ccc(C(=O)Nc2ccc3c(c2)OCO3)o1,7,-0.3,1.4,0.66,23%,4.8,-5.0
CCN1C(=O)C(CC(=O)Nc2ccc(OC)cc2)N(CCc2ccccc2F)C1=S (stereo unspecified),-1,-0.1,-3.2,0.65,-3%,4.3,-3.9
c1ccc(-c2nc3nonc3nc2-c2ccccc2)cc1,15,1.8,3.8,0.68,10%,6.1,1.7
CCOC(=O)CNC(=O)CSc1nc(Cc2ccccc2)nc2ccccc12,-3,-0.5,0.4,0.68,.,0.3,-0.6
COc1ccccc1OCC(=O)N(Cc1nc(-c2ccccc2)no1)C1CCCCC1,4,0.2,1.1,0.69,-2%,0.9,6.7
COc1ccccc1C(=O)N1CCN(S(=O)(=O)c2ccccc2)CC1,2,-0.5,-1.8,0.68,-5%,-2.1,-1.7

# Some values from the list:
# Value of CCOC(=O)C1CCN(C(=O)c2ccccc2CCc2ccccc2)CC1 under HNF4A DNA FP: -0.8
# Value of CC(C)(C)c1csc(NC2=NS(=O)(=O)c3ccccc32)n1 under E coli growth: 0.67
# Value of CCOC(=O)CNC(=O)CSc1nc(Cc2ccccc2)nc2ccccc12 under LANA-H2B inh: -0.6
# Value of O=C(NC1CCSc2ccccc21)c1cc(S(=O)(=O)N2CCOCC2)ccc1Cl (stereo unspecified) under Vif A3G: -2%
# Value of O=c1[nH]c(SCc2n[nH]c(=S)n2-c2ccccc2)nc2sc3c(c12)CCC3 under LANA-H2B inh: -5.8

# More results.
SMILES,B2AR ag,Bfl-1 A1 inh,HNF4A DNA FP,E coli growth,Vif A3G,UCH37 inh,LANA-H2B inh
O=C(N/N=C\c1cc(Br)cs1)C1COc2ccccc2O1 (stereo unspecified),-2,0.6,1.5,.,-3%,.,-4.5
CC(=O)c1ccc(NC(=O)Nc2ccc3c(c2)N(C)C(=O)CS3)cc1,24,-0.2,4.2,0.63,6%,1.7,5.5
CCOC(=O)c1ccc2c(c1)nc(C)n2CC,-3,-2.1,2.6,0.67,4%,1.6,1.9
CC(C)NC(=O)CCN1C(=O)c2ccccc2Sc2ncccc21,-9,-0.3,0.4,0.65,5%,0.5,4.7
O=P(OC1CCCCC1)(OC1CCCCC1)C(O)c1ccccc1 (stereo unspecified),0,0.0,0.3,0.71,2%,4.5,3.6
Cc1ccc(NC(=O)CN(C)C(=O)c2ccc(NS(=O)(=O)c3ccc4[nH]c(=O)[nH]c4c3)cc2)cc1,-1,-0.9,-6.9,0.63,.,0.4,29*
COC(=O)C1CCN(C(=O)COC(=O)c2ccc(OC)c(S(=O)(=O)N3CCCc4ccccc43)c2)CC1,11,-1.1,5.5,.,.,.,0.0
COC(=O)c1ccc(C(=O)NC2CC(C)(C)Cc3c2cnn3-c2ccc(F)cc2)nc1 (stereo unspecified),-8,0.5,0.2,0.69,-5%,2.8,-1.6
COC(=O)c1sccc1NC(=O)c1ccc2c(c1)OCO2,8,-2.6,-0.1,0.7,4%,-2.1,-0.3
CN(C(=O)COC(=O)c1ccc(Cl)c(S(=O)(=O)N2CCCCC2)c1)C1(C#N)CCCCC1,-9,-1.3,0.1,0.69,-1%,1.4,2.6
COCC(=O)Nc1ccc(S(=O)(=O)N2CCCC2)cc1,7,0.6,1.8,0.66,2%,3.4,-3.5
O=S(=O)(c1ccc(NC(=S)N/N=C/c2c3ccccc3cc3ccccc23)cc1)N1CCOCC1,1,-0.6,28,.,13%,.,-0.3
CC(=O)N/C(N)=N/c1nc2cc([N+](=O)[O-])ccc2o1,1,-0.6,-1.7,0.69,-4%,2.5,0.4
Cc1cc(NC(=O)CSc2ncnc3sccc23)no1,-8,-1.2,-3.3,0.67,-25%,0.8,1.3
COc1ccc(C2CC(c3ccccc3)=NN2C(=O)CSc2nnnn2-c2cccc(C)c2)cc1 (stereo unspecified),0,-0.5,4.6,0.67,.,1.4,2.8
CCC(=C(c1ccc(OC)cc1)c1ccc(OC)cc1)c1cn(CC(O)CN2CCN(C)CC2)c2ccccc12 (stereo unspecified),11,-0.7,1.7,0.68,13%,11,-7.8
O=C1CC(c2ccco2)CC(O)=C1C=NCCN1CCNCC1 (stereo unspecified),-6,0.0,4.4,0.73,32%,2.8,3.2
C#CCOCCOCCOCCNc1nc(N2CCOCC2)nc(N2CCN(C(=O)[C@H](CC(N)=O)n3cc([C@@H](N)C(C)C)nn3)CC2)n1,0,0.0,-3.0,.,.,2.4,6.5
Oc1ccccc1CNn1cnnc1,4,0.3,2.4,0.7,0%,4.6,1.4
COc1ccc(CCN(C(=S)Nc2ccccc2)C2CC(=O)N(c3ccccc3)C2=O)cc1 (stereo unspecified),2,-0.8,2.1,0.78,4%,4.6,1.6
Cc1ccc(Cl)cc1NS(=O)(=O)c1ccccc1,6,.,-3.7,0.67,5%,1.8,.
COc1cc(C(=O)NCC(=O)N2CCN(S(=O)(=O)c3ccccc3C(F)(F)F)CC2)cc(OC)c1OC,-1,0.7,1.1,0.66,.,0.5,1.1
CCNS(=O)(=O)c1ccc(CCC(=O)NCCc2ccc(OC)cc2)cc1,-2,-0.7,-2.5,0.72,1%,-1.7,4.6
O=C1/C(=C/c2ccco2)SC(=S)N1CC1CCCO1 (stereo unspecified),-8,-0.4,-2.1,.,4%,.,-1.9
Cc1occc1C(=O)NNC(=O)c1ccccc1Br,-2,-1.5,0.9,0.78,.,-1.1,-7.7

# (list continues)
SMILES,B2AR ag,Bfl-1 A1 inh,HNF4A DNA FP,E coli growth,Vif A3G,UCH37 inh,LANA-H2B inh
Cc1noc(C)c1COc1cccc(C(=O)N(C)Cc2cccs2)c1,-1,1.6,1.5,0.64,-1%,-1.9,-2.4
Cn1c(NNC(=O)c2ccc(C(C)(C)C)cc2)cc(=O)n(C)c1=O,-7,0.3,-2.7,0.71,.,4.1,-1.2
Cc1cccc(-n2nc3c(c2NC(=O)c2ccc(Br)o2)CSC3)c1,1,-0.8,0.1,0.7,64µM*,6.7,-1.8
O=[N+]([O-])c1ccc2cn(-c3ccccc3)nc2c1,2,-6.9,2.7,0.7,.,3.0,4.8
COc1cc(OC)c(NC(=O)C2CC(=O)N(c3ccc4c(c3)OCCO4)C2)cc1Cl (stereo unspecified),5,0.2,-0.5,0.72,-7%,-0.9,.
COc1ccc(-c2cc(C(=O)NCC(c3ccco3)N(C)C)c3ccccc3n2)cc1OC (stereo unspecified),11,1.1,0.2,0.69,0%,-4.8,4.2
COc1ccc(-c2cc(C(F)(F)F)c(C#N)c(SCC(=O)Nc3nc(C)co3)n2)cc1,8,0.8,39,0.67,-30%&3%,-196,-1.0
CC1COc2ccccc2N1S(=O)(=O)c1ccccc1 (stereo unspecified),1,0.4,0.6,0.7,-6%,2.9,1.6
CN(C)S(=O)(=O)c1ccc(N2CCCC2)c(C(=O)NCC2COc3ccccc3O2)c1 (stereo unspecified),3,-0.2,-1.1,0.71,-1%,2.0,-0.9
CC(Sc1ccccc1)C(=O)Nc1cccc(N(C)S(C)(=O)=O)c1 (stereo unspecified),4,0.3,-0.5,0.66,5%,2.4,9.5
Cc1cc(C)c(OCCCCCNCCO)c(C)c1,6,0.5,-3.4,0.69,15%,1.6,0.2
Cc1ccc(C(=O)Nc2sc3c(c2C(=O)O)CCCC3)o1,11,-0.2,3.0,0.73,2%,4.0,-0.2
CCN(CC)CC(=O)Nn1c(C)nc2c(ncn2-c2ccccc2)c1=O,-1,1.0,-0.4,0.69,-7%,2.1,0.2
O=C(CNC(=O)c1ccccc1F)N/N=C/c1cccnc1,2,-0.2,-4.9,.,.,.,3.2
CCN(C(=O)CSc1nncn1-c1ccccc1)c1c(N)n(Cc2ccccc2)c(=O)[nH]c1=O,-7,0.6,6.0,0.69,?,0.2,0.8
CC(C)(C)S(=O)(=O)c1cnc(-c2ccccn2)nc1N,-1,0.7,1.0,0.62,-8%,3.8,-0.4
COc1cc(C(=O)Nc2ccc(S(=O)(=O)NC(C)C)cc2)cc(OC)c1OC,6,0.5,3.2,0.69,66%,1.1,1.1
COC(=O)/C=C(\Oc1ccccc1)C1(O)CCCCC1,1,0.0,-4.2,0.71,-8%,4.3,1.8
CCC(CC)C(=O)Nc1cccc(-c2nc3ccccc3o2)c1,-2,-0.4,3.7,0.73,3%,0.3,-2.4
O=C(O)c1cc(-c2ccc(Cl)c(Cl)c2)n(-c2ccccc2)n1,7,0.3,1.1,0.66,-13%,1.7,-0.5

# Profiles as entered above. Values in the order: B2AR ag, Bfl-1 A1 inh, HNF4A DNA FP, E coli growth, Vif A3G, UCH37 inh, LANA-H2B inh
# Results for `COC(=O)C1CCN(C(=O)COC(=O)c2ccc(OC)c(S(=O)(=O)N3CCCc4ccccc43)c2)CC1` = 11, -1.1, 5.5, ., ., ., 0.0
# Results for `O=c1[nH]c(SCc2n[nH]c(=S)n2-c2ccccc2)nc2sc3c(c12)CCC3` = 12, 1.1, 1.0, 0.62, 2%, 3.7, -5.8
# Results for `CCC(CC)C(=O)Nc1cccc(-c2nc3ccccc3o2)c1` = -2, -0.4, 3.7, 0.73, 3%, 0.3, -2.4
